Sa growth 42C: S. aureus growth inhibition at 42 and 30 °C, primary screen, LtaS inhibitor project, RN4220, two temperatures. OD600, 20 h, 42 °C; hits give low values. relative growth, % (concentration not given with the values). 170,000 compounds, 0.53% hits. AID 720641, 2013;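 active means growth at 42 °C up to 50% and 20 or more points under that at 30 °C, or under 10% at both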;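 further: 300 nL library stock went into each well; scaled to the means of positive and negative controls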
GIV Gai3 FP: inhibitors of GIV peptide binding to Galpha-i3, primary screen, biochemical, fluorescence polarization, FITC-GIV GBA peptide, rat Galphai3; Guanine nucleotide-binding protein G(i) subunit alpha-3 (Rattus norvegicus), P08753; 90 min; hits give low values; scaled: aluminum fluoride 0%, vehicle 100%; percent of control (FP), % (concentration not given with the values); 210,000 compounds, 0.42% hits; AID 1224905, 2016;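 active means replicate mean at 85% of control or lower, very high polarization wells dropped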;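 further: wells of about 15 µL received 100 nL stock; the first replicate is given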
Target sequence (P08753 whole entry, looked up): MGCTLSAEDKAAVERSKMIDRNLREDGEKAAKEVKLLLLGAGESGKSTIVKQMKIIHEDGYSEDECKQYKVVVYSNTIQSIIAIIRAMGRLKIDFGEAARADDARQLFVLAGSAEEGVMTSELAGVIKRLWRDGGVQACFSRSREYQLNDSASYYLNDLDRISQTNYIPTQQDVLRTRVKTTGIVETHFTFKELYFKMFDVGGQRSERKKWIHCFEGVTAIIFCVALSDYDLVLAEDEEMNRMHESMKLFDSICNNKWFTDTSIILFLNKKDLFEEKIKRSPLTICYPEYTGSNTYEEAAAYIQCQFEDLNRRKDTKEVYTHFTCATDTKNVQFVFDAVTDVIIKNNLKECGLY
HCMV NEC inh: inhibitors of HCMV UL50-UL53 interaction, biochemical, HTRF; normalized percent inhibition; HCMV UL50-UL53 nuclear egress complex (human cytomegalovirus); 190,000 compounds, 0.15% hits; inhibition, % (test concentration not listed);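 active means both replicates at 50% or more, plus weaker picks with an unusually low signal ratio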;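 further: stock transfer was 100 nL into about 20 µL; 0% = negative control wells and 100% = wells with untagged competitor protein; inactives centre near -12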
Sa growth 42C second temp: also measured in Sa growth 42C; calls as there; relative growth, %; measured here: growth at 30 °C;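 optical density after 20 h as mean of two plates; 100% = untreated growth and lower means inhibition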
Starred values were filed as active, the others as inactive; . = no result given; & = joins results of further samples. Rows are unselected; 0.8% or so of the library scored in one or more.

SMILES | Sa growth 42C | Sa growth 42C second temp | GIV Gai3 FP | HCMV NEC inh
COc1ccc(CNC(=O)c2cnc3sc(N4CCOCC4)nn3c2=O)cc1 | 97.4 | 102.6 | 106.0 | .
CCC(=O)NC(Cc1ccccc1)c1nc2ccccc2[nH]1 (stereo unspecified) | 98.6 | 95.2 | 105.0 | -14.7
CC1CN(C(=O)N2CCC(C(=O)N3CCN(c4ccccc4)CC3)CC2)c2cc(Cl)ccc2O1 (stereo unspecified) | 123.8 | 80.2 | 103.5 | -14.6
COc1ccc(NC(=O)N2CCCC2c2ccc(Cl)cc2)cc1OC (stereo unspecified) | . | . | 101.8 | -30.0
CC(=O)N1CCCC1c1nc2ccccc2n1Cc1ccccc1 (stereo unspecified) | 112.6 | 86.9 | 103.5 | -19.3
CCOC(=O)C1CCN(/C=C(\C#N)S(=O)(=O)C(C)(C)C)CC1 | 101.6 | 97.6 | 99.4 | -0.4
CN(C(=O)COC(=O)c1ccc(I)cc1)c1ccccc1 | 124.4 | 91.1 | . | -16.8
Cc1cc(C)n2ncc(C(=O)NC3CCCCC3)c2n1 | . | . | 101.2 | -14.5
CC1=C(C(=O)Nc2ccccc2)C(c2cccc(Br)c2)n2nnnc2N1 (stereo unspecified) | . | . | 105.0 | 2.1
COc1ccc(CNC(=O)c2cccc3c2C(=O)N(c2ccc(OC)cc2)C3)cc1 | 94.4 | 82.9 | 100.1 | .
COc1cc(NC(=O)CCn2nc(C)cc2C)cc(OC)c1OC | 87.2 | 86.2 | 95.6 | .
C/C(N)=C(/C#N)C(=O)Cn1ncc(Cl)c(Cl)c1=O | 64.5 | 92.6 | . | -63.2
CCc1ccc(C(=O)COC(=O)C(Cc2c[nH]c3ccccc23)NC(=O)c2ccc(CC)cc2)cc1 (stereo unspecified) | 123.8 | 95.1 | 101.9 | .
CN1CCN(Cc2c(O)ccc3c(=O)c(Oc4ccccc4Cl)c(C(F)(F)F)oc23)CC1 | 99.0 | 86.6 | 99.5 | -24.4
CC1CN/C(=C/C(=O)c2ccc(Br)cc2)C(=O)N1 (stereo unspecified) | 97.9 | 94.0 | 102.5 | -75.6
CC(C)C(=O)NCCN1CCOCC1 | 93.6 | 100.9 | 107.8 | 6.5
Cc1c(Cl)cccc1NC(=O)CSc1ncccc1C(=O)Oc1ccccc1Cl | 119.0 | 85.8 | 100.1 | .
CCOC(=O)c1c(C)n(C)c2ccc(OCC(O)CN3CCCCC3C)cc12 (stereo unspecified) | . | . | 96.1 | -9.7
Cc1cc2c(cc1C)NC(CC(N)=O)C(=O)N2 (stereo unspecified) | 96.5 | 83.9 | . | -25.1
Cc1ccccc1Cn1c(C(=O)O)c(CNCc2cccc(F)c2)c2ccccc21 | 113.6 | 93.8 | 107.8 | .
O=C(Nc1ccc(Cl)cc1)c1ccc(-n2cnc3cccnc32)cc1 | . | . | 105.6 | -14.5
Cc1cc(C)cc(NC(=O)CSc2nc3c(cnn3-c3ccc(F)cc3)c(=O)[nH]2)c1 | 113.3 | 87.6 | 103.6 | -7.6
CCn1c(=O)c(C(=O)Nc2ccc(C(C)=O)cc2)nc2ccccc21 | 119.0 | 86.5 | 103.8 | -73.6
COc1ccccc1CNC(=O)CCC1N=C2c3ccccc3N=C(SCC(N)=O)N2C1=O (stereo unspecified) | 98.7 | 88.7 | 103.9 | .
CCOC(=O)Cc1csc(-n2nc(C)c(Cc3ccc(C)cc3)c2C)n1 | . | . | 103.6 | -15.0
CC1CN(C(=O)c2cc(-c3ccccc3)nc3ccccc23)CC(C)O1 (stereo unspecified) | 95.8 | 95.8 | 101.5 | 2.1
Cc1ccc(Cl)cc1S(=O)(=O)N1CCC(c2nc3c(nnn3Cc3ccc(F)cc3)c(=O)[nH]2)CC1 | . | . | 94.7 | -4.9
CCCCNS(=O)(=O)c1ccc(C)c(-c2nnc3c4ccccc4c(C)nn23)c1 | 97.5 | 89.5 | 103.3 | -12.0
O=C(NC1CCCCC1)c1ccc2c(=O)nc3c(-c4cccc(F)c4)n[nH]n3c2c1 | . | . | 104.7 | 51.4
Cc1ccc(CN2CCN(c3cccc4[nH]ccc34)CC2)cc1 | 82.4 | 106.1 | 99.7 | 1.1
Cc1ccc(Cn2cnc3cc(C)c(C)cc32)cc1 | 38.5 | 0.6 | 105.4 | 4.9
Cn1c(=O)n(CCCOc2ccc(Cl)cc2)c2ccccc21 | 75.8 | 65.5 | 103.8 | -28.8
CCOC(=O)c1cnc2ccc(C)cc2c1Nc1ccc(N(CC)CC)cc1 | 119.7 | 82.6 | 112.1 | -26.9
COc1cccc2c1cc1c(=O)n(CC(=O)NCc3ccc(C)o3)nc(C)n12 | 110.0 | 94.5 | 94.0 | -18.7
CCOC(=O)C1=C(C)N=c2s/c(=C\c3cc(OC)c(OC)c(OC)c3)c(=O)n2C1c1ccccc1OC (stereo unspecified) | . | . | 100.6 | -25.9
Cc1c(C#N)c(-n2cccc2)n(Cc2cccs2)c1C | 88.3 | 59.6 | 101.0 | 3.9
Cc1oc2ncn(CC(=O)NCCC(C)C)c(=O)c2c1C | . | . | 104.6 | 5.0
Cc1ccc(NC(=O)c2ccccc2Br)c(C(=O)c2ccccc2)c1 | 98.3 | 89.5 | 109.8 | 7.8
CCOc1ccc2[nH]c(=O)c(CN(C(=S)NCc3ccco3)C3CCCC3)cc2c1 | 123.1 | 112.4 | 100.9 | 18.0
O=C(Nc1ccc(F)cc1F)c1cc(CN2CCOCC2)on1 | 79.4 | 92.0 | 103.2 | .
Cn1cccc/c1=N/c1cccc[n+]1C | 99.7 | 85.0 | 104.6 | .
CC1=CCC2(C(=O)OC(C)(C)OC2=O)C(c2ccc(Br)cc2)C1 (stereo unspecified) | 100.9 | 99.2 | 95.0 | .
Cn1c(SC/C(O)=C(\C#N)c2nc3ccccc3[nH]2)nc2ccccc21 | 90.5 | 94.3 | . | 3.5
CC1CCCCC1NC(=O)c1cc(-c2cccs2)nc2ccccc12 (stereo unspecified) | 107.8 | 91.3 | 96.9 | .
N#CC1=C(N)Nc2c(c(=O)oc3ccccc23)C1c1ccc(Br)cc1 (stereo unspecified) | 121.2 | 72.2 | . | -8.9
O=C1CN(CC(=O)NC2CCCc3ccccc32)CCN1 (stereo unspecified) | 94.3 | 94.5 | . | -24.4
Cc1c(Cl)cccc1N1C(=O)CC(N2CCCc3ccccc32)C1=O (stereo unspecified) | 117.2 | 73.9 | 107.4 | -2.4
CCn1c(=N)c(C#N)cc2c(=O)n3ccccc3nc21 | 94.3 | 80.7 | . | -49.5
CCC(=O)Nc1cc(S(=O)(=O)CC)ccc1OCc1cc(=O)n2oc(C)cc2n1 | . | . | 98.5 | 0.7
COc1ccc(OC)c(CNc2nc3ccccc3nc2C(F)(F)F)c1 | . | . | 101.0 | -1.7
Cc1ccsc1CN(C(=O)c1ccc(Br)cc1)C1CCS(=O)(=O)C1 (stereo unspecified) | 106.3 | 83.1 | 103.6 | -12.0
C=C1C(=O)OCC(C)(C)N1C(=O)OCc1ccccc1 | 94.4 | 103.5 | 104.8 | 9.6
Cc1cc(C(=O)Nn2c(-c3ccc(Br)cc3)nc3ccccc3c2=O)ccc1[N+](=O)[O-] | . | . | 100.3 | -28.8
CCOC(=O)C1=C(N)OC2=C(C(=O)CC(c3ccccc3)C2)C1c1ccccc1 (stereo unspecified) | . | . | 104.2 | 7.4
CCC(Sc1nc2cc(OC)c(OC)cc2c2nc(C)nn12)C(=O)NCc1ccc(C)cc1 (stereo unspecified) | 96.6 | 98.3 | 98.5 | .
COc1ccc(NC(=O)NCC(C)CSc2ccc(Cl)cc2)c(OC)c1 (stereo unspecified) | 116.9 | 94.9 | 106.2 | .
COC(=O)Cn1c(=O)cc(N)n(Cc2ccccc2)c1=O | 92.6 | 96.0 | . | -18.3
Cc1cccc(-c2nccc(Nc3ccc(C(=O)N4CCC(C)CC4)cc3)n2)c1 | . | . | 109.7 | 10.2
O=C(Oc1ccc(Cl)cc1)c1sc2sccc2c1Cl | 95.0 | 83.9 | 103.2 | -13.5
O=S(=O)(c1ccc(-c2cc(C(F)(F)F)ccn2)s1)N1CCCC1 | 94.9 | 83.7 | 102.0 | -50.6

One compound at a time, from the list above.
`COC(=O)Cn1c(=O)cc(N)n(Cc2ccccc2)c1=O` in the list: Sa growth 42C = 92.6; Sa growth 42C second temp = 96.0; GIV Gai3 FP = .; HCMV NEC inh = -18.3
`Cc1cc2c(cc1C)NC(CC(N)=O)C(=O)N2` (stereo unspecified) in the list: Sa growth 42C = 96.5; Sa growth 42C second temp = 83.9; GIV Gai3 FP = .; HCMV NEC inh = -25.1

Exported with two lines to a compound: 2 of the compounds above.
Under each structure: Sa growth 42C, Sa growth 42C second temp, GIV Gai3 FP, HCMV NEC inh
COC(=O)Cn1c(=O)cc(N)n(Cc2ccccc2)c1=O
  92.6, 96.0, ., -18.3
COc1ccc(OC)c(CNc2nc3ccccc3nc2C(F)(F)F)c1
  ., ., 101.0, -1.7

Later entries
SMILES | Sa growth 42C | Sa growth 42C second temp | GIV Gai3 FP | HCMV NEC inh
O=C(NCc1ccccc1)NCc1noc2ccccc12 | 119.8 | 93.5 | 106.9 | .
CCOC(=O)c1cnc(NCc2ccc(OC)cc2OC)c2ccccc12 | 95.8 | 102.7 | 106.1 | .
CCOC(=O)c1cc2ccccc2nc1C | 89.5 | 99.6 | . | 4.0
CCC(C)NC(=O)C1CCCCN1S(=O)(=O)c1ccc(F)cc1 (stereo unspecified) | 124.0 | 87.2 | 101.2 | -8.2
Cc1cc(O)ccc1-n1c(=O)c2cc3c(=O)n(-c4ccc(O)cc4C)c(=O)c3cc2c1=O | 92.0 | 82.1 | 100.4 | .
CC1(C)CC(NC(=S)NCc2ccco2)CC(C)(C)N1 | 100.5 | 103.4 | 107.2 | -3.7
COc1cccc(CNC(=O)c2cc(-c3ccc(Cl)cc3)n[nH]2)c1 | 94.9 | 99.0 | 104.8 | .
O=C(O)C1C2C=CC(C2)C1C(=O)NCC1CCCO1 (stereo unspecified) | 103.6 | 87.5 | 105.3 | -21.1
CSc1c(CC(=O)Nc2ccccc2)n(C)c2ccccc12 | 68.9 | 104.0 | . | -1.0
CN1CCN(C(=O)NCC23CC4CC(C2)CC(CNC(=O)N2CCN(C)CC2)(C4)C3)CC1 | 86.8 | 81.5 | 102.2 | -27.1
CCOC(=O)c1c(-c2ccc(Br)cc2)csc1NC(=O)c1sc(C)nc1C | . | . | 106.9 | -13.9
CCOc1cc(C#N)c(-n2nnc3c(sc4nc(C)cc(C)c43)c2=O)cc1OCC | 104.3 | 94.1 | 100.7 | 7.8
Cc1cc(C)cc(NS(=O)(=O)c2cc(-c3ccc(=O)[nH]n3)ccc2Cl)c1 | . | . | 103.9 | -47.0
COc1cc(NC(=O)CCNS(=O)(=O)c2cc(Br)cnc2N)cc(OC)c1 | 97.1 | 82.7 | 105.2 | -7.8
CCOc1cc(/C=c2\sc3nc(=O)c(C)nn3c2=O)ccc1OC(C)=O | 86.8 | 72.8 | 95.3 | -23.2
Cc1oc2ccc(O)c(CN3CCN(C)CC3)c2c1C(=O)Nc1cccc(Cl)c1C | 109.1 | 89.1 | 101.6 | -0.8
O=S(=O)(Nc1ccccc1-c1ccccc1)c1cccs1 | 155.6 | 69.4 | 106.0 | 19.9
COc1ccc(C2CC(=O)C3=C(C2)Nc2ccccc2NC3c2coc3c(Cl)cc(Cl)cc3c2=O)cc1 (stereo unspecified) | . | . | 105.6 | -23.6
Cc1ccc(CN2CCN(C3CCN(S(=O)(=O)c4c(C)cc(C)cc4C)CC3)C(=O)C2=O)cc1 | . | . | 99.4 | -9.9
COc1ccc(CNC(=O)c2sc3nc4n(c(=O)c3c2C)CCCCC4)cc1 | 103.4 | 92.6 | 94.5 | -22.4
COc1ccc(-c2nn(-c3ccccc3)cc2C#N)cc1 | 106.3 | 96.7 | 105.6 | -5.6
CCc1nnc2c(Nc3cc(OC)c(Cl)cc3OC)nc3ccccc3n12 | 113.2 | 94.9 | 106.5 | 4.1
CCOC(=O)c1ccc(NC(=O)Cn2cc(S(=O)(=O)Cc3ccccc3F)c3ccccc32)cc1 | 104.1 | 89.7 | 106.3&109.5 | -8.0
CCCCN(CC)CCCNC(=O)c1nn(-c2ccc(OC)cc2)c(=O)c2c1c1ccccc1n2C | 109.7 | 86.3 | 106.4 | -34.7
N#CCn1c(COC(=O)CNC(=O)c2cccs2)nc2ccccc2c1=O | 104.6 | 89.5 | . | -28.3
Cc1ccc(C)c(N2CCN(C(=O)C3CCN(c4nc(-c5ccc(C(C)C)cc5)no4)CC3)CC2)c1 | 87.3 | 92.7 | 103.2 | .

Some of the entries so far, tab-delimited.
mol	Sa growth 42C	Sa growth 42C second temp	GIV Gai3 FP	HCMV NEC inh
Cc1oc2ncn(CC(=O)NCCC(C)C)c(=O)c2c1C	.	.	104.6	5.0
Cc1ccc(NC(=O)c2ccccc2Br)c(C(=O)c2ccccc2)c1	98.3	89.5	109.8	7.8
CCOc1ccc2[nH]c(=O)c(CN(C(=S)NCc3ccco3)C3CCCC3)cc2c1	123.1	112.4	100.9	18.0

Source: PubChem BioAssay (ICCB-Longwood Screening Facility, Harvard Medical School)
